Screens deposited in PubChem by several laboratories.
FGF22 binding: binders of recombinant human FGF22 by thermal shift; SYPRO orange fluorescence; percent of sucrose octasulfate shift, DMSO zero; Q9HCT0; 340,000 compounds, 1.5% hits; calls only at 9.99 µM;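 active = melting point raised past a set limit in the mean and every replicate; three in four hits are not shown here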
Target sequence (Q9HCT0 whole entry, looked up): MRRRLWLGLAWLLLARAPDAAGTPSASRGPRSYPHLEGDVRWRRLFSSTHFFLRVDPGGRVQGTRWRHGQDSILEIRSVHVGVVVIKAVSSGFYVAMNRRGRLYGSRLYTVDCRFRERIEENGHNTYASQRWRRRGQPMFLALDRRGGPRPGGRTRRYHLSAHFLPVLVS
E coli growth: E. coli growth inhibition. AID 1053175. OD600 absorbance (test concentration not listed). Escherichia coli growth, OD600, 23 h; hits give low values. 330,000 compounds, 0.21% hits;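 active = OD600 absorbance below the run mean of sample wells minus 3.6 SD, in any replicate, cut at about 0.56 in these data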;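 note: stock transfer was 300 nL into about 60 µL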
B2AR ag: activates human beta-2 adrenergic receptor causing internalization. response, % (no concentration beside the values). P07550. Am2.2-beta2AR cells, FAP receptor internalization, flow cytometry; reference of the scale not given here. 340,000 compounds, 0.43% hits;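 active = response above a set limit, near 3 SD of response in nonfluorescent compounds, cut at about 42% in these data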;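 note: stock transfer was 100 nL into about 11 µL; a reference agonist was the positive control; negative values mostly stem from fluorescent compounds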
UCH37 inh: blocks the human deubiquitinase UCH37; purified proteasome/UCH37, Ub-AMC cleavage fluorescence; Q9Y5K5; inhibition, % (test concentration not listed); 330,000 compounds, 0.33% hits; AID 588478;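 active = mean of two replicates above 20%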;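 note: 0% = compound-free wells with enzyme and 100% = wells lacking proteasome; stock transfer was 100 nL into about 20 µL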
Target sequence (Q9Y5K5 whole entry, looked up): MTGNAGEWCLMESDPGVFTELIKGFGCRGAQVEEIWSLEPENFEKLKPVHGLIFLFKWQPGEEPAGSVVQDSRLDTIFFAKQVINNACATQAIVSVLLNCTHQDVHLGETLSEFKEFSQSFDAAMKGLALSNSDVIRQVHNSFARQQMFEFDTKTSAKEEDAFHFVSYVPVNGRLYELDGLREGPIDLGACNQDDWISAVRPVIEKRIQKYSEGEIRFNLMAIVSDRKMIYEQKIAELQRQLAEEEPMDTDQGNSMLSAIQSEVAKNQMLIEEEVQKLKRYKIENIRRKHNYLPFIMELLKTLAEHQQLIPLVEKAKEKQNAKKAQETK
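Assay system: Proteasome-bound UCH37. Buffer or medium: pH 7.4 Tris-HCl (50 mM) with ovalbumin, ATP-MgCl2, DTT. Incubation: 30 min preincubation with enzyme, 25 min cleavage at room temperature. Measured by: fluorescence, ex 355 nm, em 460 nm. Read-out basis: percent inhibition. Control set: wells without proteasome as full block, compound-free enzyme plus substrate as uninhibited.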
ALR inh: inhibitors of human sulfhydryl oxidase ALR; P55789; purified ALR, DTT oxidation, H2O2 HRP-luminol luminescence; inhibition, % (concentration not given with the values); 290,000 compounds, 3.8% hits; AID 485317;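 active = mean and each replicate at 75% or more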;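 note: stock transfer was 7.5 nL into about 7.5 µL; 0% = neutral wells and 100% = wells with inactivated enzyme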
HNF4A DNA FP: change in binding of human HNF4 alpha to DNA; P41235; HNF4a-FITC DNA binding, fluorescence polarization, 1 h; activity change, % at 10 µM; 360,000 compounds, 0.3% hits; AID 1224865; in the data active = activity change above about 30%, passing the limit was not always enough;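 note: controls were the assay level and a saturating level of protein; the project sought stronger binding though the title names inhibitors; some compounds called inactive have numbers as strong as hits; positive values seem to mean higher polarization but the record does not say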
Target sequence (P41235 whole entry, looked up): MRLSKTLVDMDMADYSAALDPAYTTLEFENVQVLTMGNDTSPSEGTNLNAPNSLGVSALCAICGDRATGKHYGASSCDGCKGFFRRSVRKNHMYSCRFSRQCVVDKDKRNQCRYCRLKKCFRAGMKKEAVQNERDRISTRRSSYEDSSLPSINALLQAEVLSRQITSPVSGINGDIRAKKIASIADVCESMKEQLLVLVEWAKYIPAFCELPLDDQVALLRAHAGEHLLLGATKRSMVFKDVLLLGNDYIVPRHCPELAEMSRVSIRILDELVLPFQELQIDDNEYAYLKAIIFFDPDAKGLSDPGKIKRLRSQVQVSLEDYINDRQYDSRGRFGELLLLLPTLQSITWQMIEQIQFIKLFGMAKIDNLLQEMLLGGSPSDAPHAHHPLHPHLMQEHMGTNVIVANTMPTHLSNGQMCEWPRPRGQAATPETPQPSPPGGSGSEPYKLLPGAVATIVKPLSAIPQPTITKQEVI
LANA-H2B inh: blocks KSHV LANA binding to histone H2A/H2B; Q9QR71; cell-free LANA-H2A/H2B peptide, fluorescence polarization; inhibition, % (test concentration not listed); 320,000 compounds, 0.6% hits; AID 2629; in the data active = inhibition mostly above about 10%, no sharp cut-off; inactive = mostly below about 6.7%;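 note: stock transfer was 7.5 nL into about 10 µL; 0% = median of vehicle wells and 100% = median of positive control wells; one replicate is shown; the record names a cut of 25% in any replicate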
Numbers without * were called inactive; i = inactive; . = not tested or not shown.

The line under a structure holds: FGF22 binding, E coli growth, B2AR ag, UCH37 inh, ALR inh, HNF4A DNA FP, LANA-H2B inh
> Cc1occc1C(=O)N1CCN(c2ncccn2)CC1
    ., 0.75, 2, -4.7, 1, 1.5, 1.2
> Cc1nnc(SCC(=O)Nc2ccc3[nH]c(=O)[nH]c3c2)s1
    i, 0.68, -5, 1.0, -5, -0.3, -0.2
> Cc1cc(C(=O)NC2CCCc3ccccc32)no1 (stereo unspecified)
    ., 0.71, -2, 3.2, -8, 1.5, 2.6
> COc1cccc(NC(=O)CNS(=O)(=O)c2ccc(Cl)cc2)c1
    ., 0.7, -2, 1.6, -6, 5.7, -3.4
> C/C(=N\NC(=O)c1ccccn1)c1ccc(C(=O)O)s1
    ., ., ., ., -2, ., 3.5
> Cc1cccc(C)c1OCC(O)CN1CCC(CN2C(=O)c3cccc4cccc(c34)C2=O)CC1 (stereo unspecified)
    ., 0.66, 16, -36, -8, -2.5, -3.2
> O=C(CCCn1c(=S)[nH]c2ccsc2c1=O)Nc1ccc2c(c1)OCO2
    i, 0.72, 1, 4.4, 5, 3.6, -3.6
> CC(=O)Nc1cccc(NC(=O)C2CCCN2C(=O)Nc2ccccc2C)c1 (stereo unspecified)
    ., 0.69, -4, -2.7, -3, -0.5, 5.4
> Cc1ccc(NC(=O)CSCCc2ccccn2)nc1
    ., 0.69, -3, 0.3, 97*, 0.9, -0.3
> O=C(Nc1ccccc1N1CCCCC1)c1ccco1
    ., 0.66, 3, 1.9, 97*, -2.9, 2.3
> COc1cccc(NC(=O)N2CCCc3ccccc32)c1
    i, 0.68, -2, 1.7, -5, 5.7, -3.8
> Cc1noc(C)c1NC(=O)Nc1cccc2c1O[C@H](CN(C)C(=O)NC(C)C)[C@@H](C)CN([C@H](C)CO)C2=O
    i, ., 1, 4.4, -2, 5.1, -2.2
> O=C(Nc1ccc(C(F)(F)F)cc1Cl)c1ccc(Cn2cc(Br)cn2)o1
    i, 0.67, 0, 3.1, -3, 3.1, -10.0
> CCn1cc(SCC(=O)NCC2CCCO2)c2ccccc21 (stereo unspecified)
    i, 0.74, -8, 1.5, 98*, 0.6, 0.0
> C/C(Cn1nnc2ccccc21)=N/OC(=O)c1c(F)cccc1F
    i, ., -3, ., -1, -0.4, 2.2
> CC(C)(C)NC(=O)C1CC(=O)N(CCc2ccc(F)cc2)C1 (stereo unspecified)
    i, 0.62, 4, 2.2, -1, 7.5, 1.5
> C[C@@]12CCC3[C@@](CCC4[C@@]3(C)CCC[C@@]4(C)C(=O)NC3CCCCC3)(CC1=O)C2 (stereo partly specified)
    i, 0.7, -11, -0.2, -8, -0.5, 8.4
> COC(=O)C1=C(N)Oc2cc(C)n(CC3CCCO3)c(=O)c2C1c1ccccc1 (stereo unspecified)
    ., 0.75, -2, -0.7, -2, 1.4, -2.0
> COc1ccc(S(=O)(=O)N2CCCC2C(=O)NCc2cccs2)cc1 (stereo unspecified)
    ., 0.69, 8, 1.0, ., 1.0, -1.8
> COc1ccc(S(=O)(=O)N2CCCCCC2)cc1C(=O)OCC(=O)NC(C)(C)C
    i, 0.65, -2, -0.4, -3, 3.0, 1.7
> Cc1cccc(N(CC(=O)N/N=C/c2ccc(C(=O)O)cc2)S(=O)(=O)c2ccccc2)c1C
    i, ., 0, ., -2, 1.7, -6.5
> CC(C)Oc1ccc(S(=O)(=O)N2CCOCC2)cc1NC(=O)CN1C(=O)c2ccccc2C1=O
    i, 0.7, -22, 1.9, ., 1.1, .
> O=S(=O)(c1ccc(C(F)(F)F)cc1)N1CCCN(c2ccc(C(F)(F)F)cn2)CC1
    i, 0.65, 1, 2.9, 1, 3.4, -1.9
> CC(=O)c1ccc(N(CC(=O)NCCc2ccccc2)C(=O)c2csnn2)cc1
    i, ., -2, ., -1, -1.4, 0.9
> COc1cc(OC)c(C#N)c(S(=O)(=O)Cc2ccccc2)c1
    ., 0.74, -1, 5.0, -29, -0.9, 1.7
> Cc1ccc(NC(=O)CSCC(=O)Nc2ccccc2C(=O)N2CCCCC2)cc1
    i, 0.65, -6, 3.7, ., -3.5, -1.9
> O=C(CSc1n[nH]c(-c2ccncc2)n1)NCCc1ccccc1
    ., 0.77, 9, -1.0, -9, 0.7, 0.7
> CCC(CC)c1nnc(NC(=O)c2ccc([N+](=O)[O-])cc2)s1
    ., 0.65, 5, 6.0, -5, -1.6, 5.4
> Cc1cc(C)c(S(=O)(=O)N2CCOC2CNC(=O)C(=O)NCCc2ccc(S(N)(=O)=O)cc2)c(C)c1 (stereo unspecified)
    i, 0.68, 32, 2.4, -2, -1.7, -2.5
> CCCCCCCCCCCCN1[C@@H](CC(=O)OC)c2cc(C(F)(F)F)ccc2S1(=O)=O
    ., ., 4, 3.4, -5, -0.3, -0.6

Entries above that have a tert-butyl group (two):
The line under a structure holds: FGF22 binding, E coli growth, B2AR ag, UCH37 inh, ALR inh, HNF4A DNA FP, LANA-H2B inh
> CC(C)(C)NC(=O)C1CC(=O)N(CCc2ccc(F)cc2)C1 (stereo unspecified)
    i, 0.62, 4, 2.2, -1, 7.5, 1.5
> COc1ccc(S(=O)(=O)N2CCCCCC2)cc1C(=O)OCC(=O)NC(C)(C)C
    i, 0.65, -2, -0.4, -3, 3.0, 1.7

More structures:
The line under a structure holds: FGF22 binding, E coli growth, B2AR ag, UCH37 inh, ALR inh, HNF4A DNA FP, LANA-H2B inh
> COCC(C)NC(=O)CSc1nc(-c2ccccc2)c(-c2ccccc2)o1 (stereo unspecified)
    ., 0.69, -2, 0.1, -4, -0.3, 2.4
> COc1ccc(S(=O)(=O)N2CCCC(C(=O)Nc3cccnc3)C2)cc1Cl (stereo unspecified)
    ., 0.73, -6, 1.8, -17, -0.4, -1.6
> O=C(CCCCCNS(=O)(=O)c1ccc(Br)cc1)NCCN1CCOCC1
    i, 0.66, 3, 3.5, ., 0.1, 0.1
> CC(=O)NC(Cc1c[nH]c2ccccc12)C(=O)N/N=C/c1ccccc1 (stereo unspecified)
    i, ., -6, ., -13, 1.0, -1.8
> COc1ccc(CNC(=O)C2CCN(S(=O)(=O)c3ccc(-c4nn[nH]n4)cc3)CC2)cc1
    ., 0.73, 1, 1.9, 2, 0.5, 1.1
> CCOC(=O)N1CCN(S(=O)(=O)c2ccc(C(=O)N(CCN(CC)CC)c3nc4ccc(C)cc4s3)cc2)CC1
    i, 0.66, 6, -0.7, -3, 0.9, 4.7
> O=C(c1ccc(N2CCCC2=O)cc1)N1CCOCC1
    ., 0.69, -1, 2.1, -12, -0.4, 3.9
> COc1ccccc1N(CC(=O)N/N=C/c1c(O)ccc2ccccc12)S(C)(=O)=O
    ., ., 17, ., -3, 1.2, -2.4
> O=C(NS(=O)(=O)Nc1ccccn1)c1c[nH]c2ccccc12
    i, 0.73, -6, 1.4, -21, 0.9, -10.0
> CC(Oc1ccc(C(=O)c2ccccc2)cc1)C(=O)Nc1ccc(S(N)(=O)=O)cc1 (stereo unspecified)
    i, 0.68, -10, 6.6, -70, 1.3, 0.9
> CCc1ccc(C2CC(c3ccc(F)cc3)Nc3nc(N)nn32)cc1 (stereo unspecified)
    i, 0.68, 8, 1.0, -7, 3.2, 2.2
> O=C(NCCS(=O)(=O)N1CCC2(CC1)OCCO2)c1ccccc1
    i, 0.67, 7, 0.4, -1, -1.9, 5.9
> CS(=O)(=O)NCC(c1cccnc1)N1CCN(c2ccccc2F)CC1 (stereo unspecified)
    i, 0.66, -8, 1.9, -2, -0.3, -1.4
> Cc1ccc(S(=O)(=O)Nc2cc(S(=O)(=O)N3CCOCC3)ccc2NCC2CCCO2)cc1 (stereo unspecified)
    i, 0.71, 8, 0.1, 25, -4.3, -2.4
> COc1ccccc1OCC(=O)Nc1nonc1NC(=O)COc1ccccc1OC
    ., 0.7, 6, 5.7, -4, -2.1, 0.4
> CC(=O)Nc1ccc(S(=O)(=O)N2CCCCC2C(=O)O)cc1 (stereo unspecified)
    i, 0.64, 5, -1.2, -4, -2.0, 8.1
> NC(=O)c1ccsc1NC(=O)COC(=O)CCOc1ccccc1
    i, 0.66, -5, 3.5, -8, 0.7, -6.1
> CCCOc1ccc(/C=N/NC(=O)C(C)Sc2ccccn2)cc1OCC (stereo unspecified)
    ., ., -16, ., -30, -5.4, -2.9
> Cc1ccc(NC(=O)N2CCCn3c(SCC(=O)c4ccccc4)nnc32)cc1
    i, 0.68, -6, -0.1, 29, 1.7, 0.1
> CCOc1cc(C2NC(=O)c3ccccc3O2)ccc1OC(C)C (stereo unspecified)
    i, 0.7, 6, -2.9, -14, -1.5, 4.1
> CC(=O)Nc1ccc(S(=O)(=O)N2CCC(NC(=O)C(Cc3ccc(C)cc3)NC(C)=O)CC2)cc1 (stereo unspecified)
    i, 0.61, 2, 1.3, ., -4.5, .
> COc1ccc(CNC(=O)CN2C(=O)COc3ccc(S(=O)(=O)N4CCCCC4)cc32)cc1
    i, 0.66, 5, 0.9, ., 2.3, -1.6
> CC(=O)Nc1ccc(C(=O)Cn2c3[n+](c4c(F)c(F)ccc42)CCCCC3)cc1
    i, 0.68, -4, 0.1, 6, 1.4, 3.0
> COc1ccc(S(=O)(=O)N2CCCOC2CNC(=O)C(=O)NCCCn2ccnc2)cc1OC (stereo unspecified)
    i, 0.7, -5, 1.5, -8, 1.7, 2.2
> O=C(O)c1ccc(CSc2nc(-c3ccccc3)cc(C(F)(F)F)n2)cc1
    ., 0.69, 7, 3.5, 4, -2.4, 7.7
> Nc1c2c3c(sc2nc(=O)n1N)CCCC3
    i, 0.64, -2, 2.2, 0, -1.0, 1.7
> O=C(COC(=O)C1CC2CCCC(C1)C2=O)Nc1ccccc1 (stereo unspecified)
    i, 0.67, -2, 4.1, ., -0.1, .
> COc1ccc(C(=O)N/N=C/c2ccc(OC(=O)c3ccccc3)cc2)cc1
    ., ., 7, ., 10, 2.1, 3.0
> CCn1c(SCC(=O)Nc2nccs2)nnc1C1CC1
    i, 0.68, 5, 1.0, 1, 0.8, 1.3
> Cc1ccc(-c2noc(CNC(=O)c3ccoc3C)n2)cc1
    i, 0.65, 0, -0.9, 3, 3.7, -5.2
> CCOc1ccc(NC(=O)CC2C(=O)N(c3ccccc3)C(=O)N2Cc2ccccn2)cc1 (stereo unspecified)
    ., 0.66, 5, 1.1, 50, 0.6, 0.4
> CC(C)CCNC(=O)CCc1nnc(Cc2c[nH]c3ccccc23)o1
    i, 0.72, -1, 3.9, -12, 1.0, 2.0
> Cc1occc1-c1nnc(SCC(=O)NC2CCC(C)CC2)o1 (stereo unspecified)
    i, 0.69, -4, 6.9, 1, -2.3, -1.2
> CC(=O)COc1ccc2cc(-c3ccccc3)c(=O)oc2c1
    i, ., -7, ., 5, 1.0, -2.5
> N#Cc1c(SCC(=O)Nc2ccccc2)nsc1SCC(=O)Nc1ccccc1
    i, 0.75, -9, 5.5, -8, -1.4, -2.2
> COc1ccc(N2CC(C(=O)Nc3nc4ccc(F)cc4s3)CC2=O)c(OC)c1 (stereo unspecified)
    i, 0.69, 1, 4.5, -5, -1.1, 2.1
> CCSc1nc(O)c(C(c2cccc(OC)c2)c2c(O)nc(SCC)[nH]c2=O)c(=O)[nH]1
    i, 0.66, 4, 3.9, 22, 1.4, 0.7
> Cc1ccc(S(=O)(=O)N2CCC3CC2c2cc(Cl)ccc23)cc1 (stereo unspecified)
    i, ., -8, ., ., 0.5, .
> CC(=O)O/C(=C\c1cn(C(C)=O)c2ccccc12)C(=O)O
    i, 0.71, 4, 6.6, ., 4.5, .
> CCN1C(=O)/C(=C2/C(=O)N3c4c(cc(OC(C)=O)cc42)C(C)=CC3(C)C)SC1=S
    ., 0.77, -3, 10, 12, -1.8, -1.1
> CCN(CC)C(=O)CSc1nnc2nnc3cc(OC)ccc3n12
    i, 0.62, 1, 7.2, -10, -79, 3.0
> CC(C)C(NC(=O)c1ccco1)C(=O)NC1CCCCCC1 (stereo unspecified)
    i, 0.74, 0, 5.2, -12, -1.0, 2.8
> Cc1ccc(NC(=O)Cn2nc(-c3ccccc3)nc2-c2ccccc2)c(C)c1
    i, 0.65, -1, -1.8, -1, -1.9, -3.1
> Cc1ccc(S(=O)(=O)N2CCOCC2)cc1C(=O)OCC(=O)NCc1ccccc1
    i, 0.65, 0, 0.5, 18, 0.3, 3.9

A portion of the library, so the mix of outcomes need not match the whole.
